# Vaccinia mCherry – inhibitors of vaccinia virus infection (mCherry reporter signal); Vaccinia virus mCherry reporter infection, fluorescence; about a quarter of the inactives have no number; Potency, µM (highest dose often 36.5 µM), without a hit: at the top dose activity change, negative = inhibition, most hits filed as inhibitors; 310,000 tested, 0.63% active; AID 720579; active = well fitted inhibition curve with a large enough effect; inconclusive = small, poorly fitted or top-dose-only effect; inactive = no such curve, though single readings can be large or run the other way; tested in A549 cells; also: nearly all actives have a fitted effect of over 35% in size; inactives centre near -10
# Vaccinia Venus – vaccinia inhibition (Venus reporter) | Vaccinia virus Venus reporter expression, fluorescence | Potency, µM (titrated, usually from 36.5 µM), without a hit: at the highest dose activity change, negative = inhibition, most hits filed as inhibitors | 330,000 tested, 0.46% active | AID 720580; active means well fitted inhibition curve with a large enough effect; inconclusive means small, poorly fitted or top-dose-only effect; inactive means no such curve, though single readings can be large or run the other way; tested in A549 cells; also: nearly all actives have a fitted effect of over 30% in size; inactives centre near -10
# An asterisk follows results filed as active; i = inactive; ? = inconclusive; nt = not tested or not shown; & = joins results of further samples; [ ] = dose if it differs, or a comment. % is scaled to controls: 0 for no effect and ±100 for the full control effect; potency is read from the fitted curve at half-maximal effect.
SMILES,Vaccinia mCherry,Vaccinia Venus
CCc1ccc(S(=O)(=O)Nc2ccc3oc(C)c(C(=O)OCCOC)c3c2)cc1,-10%,1%
CC1CCN(C(=O)COC(=O)C2CCN(S(=O)(=O)c3ccc4c(c3)OCCO4)CC2)CC1,i,-16%
O=C(Cc1cccs1)N1CCN(c2cccc(Cl)c2)CC1,?,-14%
COc1cc(C(c2c(C)[nH][nH]c2=O)c2c(C)[nH][nH]c2=O)ccc1OC(C)C,i,-9%
C=CC[n+]1c(-c2ccc(OCC)cc2)csc1NNC(=O)Nc1ccccc1,-19%,?
COc1ccc(Nc2nc3c(S(=O)(=O)c4ccc(Br)cc4)nnn3c3ccsc23)c(OC)c1,?,?
O=C(O)CCC(=O)NNc1ncnc2ccccc12,i,-6%
COc1ccc(NC(=O)C2c3cc(OC)c(OC)cc3C(=O)N(C)C2c2cccnc2)cc1OC (centres undefined),-16%,-9%
S=C(NCC1CCCO1)Nc1cccc(Cl)c1 (centres undefined),-24%,-14%
S=C=Nc1cccc(C2(N3CCCCC3)CCCCC2)c1,-23%,-28%
CC(=O)Nc1cc(-c2ccccc2)cn2c(-c3ccc(F)cc3)cnc12,i,-14%
Cc1nn(-c2ccccc2)c2sc(C(=O)N(CC(=O)NC3CCCC3)Cc3ccco3)cc12,?,?
O=c1[nH]c(CN2CCCC2)nc2sc3c(c12)CCC3,-1%,-13%
CCN1C(=O)C(CC(=O)NC2CCCCC2)N(CC)C1=O (centres undefined),-11%,-10%
COc1cccc(/C=C/C(=O)NCc2cn3cc(Cl)ccc3n2)c1,-15%,-15%
COCCN(Cc1ccccc1)C(=O)c1cccc(S(=O)(=O)N2CCN(c3ccc(F)cc3)CC2)c1,i,-5%
CCCCCCN1CCN(C2CN(Cc3ccc(F)cc3)S(=O)(=O)C2)CC1 (centres undefined),0%,-11%
O=C(CCSc1nc(-c2ccc3c(c2)OCO3)cc(C(F)(F)F)n1)NCc1ccco1,-25%,-17%
CC(C)N1C(=O)S/C(=C/c2ccccc2OCc2ccc(C(=O)O)cc2)C1=O,-6%,-3%
COc1ccc([C@H]2C[C@@H](n3cc(-c4ccc(F)cc4)nn3)[C@H](O)CN2C(=O)c2cccs2)cc1,-7%,-21%
CC(OC(=O)CCCc1nc2ccccc2s1)C(=O)NC(N)=O (centres undefined),-23%,3%
COc1ccc(-c2c(C(=O)c3ccccc3)[nH]c(N)c2C(=O)c2ccc(Br)cc2)cc1OC,-30%,-14%
O=C(OCc1nnc(-c2ccccc2)o1)c1cc([N+](=O)[O-])ccc1Cl,-14%,-11%
COc1cc(OC)cc(C(=O)NCc2ccc3c(c2)OCO3)c1,-7%,-9%
O=C1c2ccccc2C(=O)C1c1ccnc2ccccc12,-15%,2%
CCc1ccc(N2CC(C(=O)Nc3nccs3)CC2=O)cc1 (centres undefined),nt,?
COc1ccc(-c2ccc3c(N)c(C(=O)c4ccc(OC)c(OC)c4)sc3n2)cc1,4%,-17%&-8%
COc1ccc(-c2c(C)nc3c(-c4ccccn4)cnn3c2N)cc1,-3%,-23%
O=C(c1ccc2c(c1)ncn2-c1ccc(F)cc1F)N1CCC2(CC1)OCCO2,-5%,-9%
CNc1nc(-c2ccccc2)nc(-c2ccc(OC)cc2)c1C#N,-6%,-8%
COc1ccc(-c2c(N)cnc(C(=O)O)c2C)c(OCc2ccccc2)c1OC,?,-12%
CN1CCN(C(=O)c2ccccc2NC(=O)COc2ccccc2Cl)CC1,0%,-9%
COc1ccc(Cc2nnc(NC(=O)c3ccccc3F)s2)cc1,-8%,-15%
CCOC(=O)c1ccc(CN(Cc2ccccc2C)S(=O)(=O)c2ccc(C(C)(C)C)cc2)cc1,-8%,-6%
OCCNC(=S)Nc1cccc(Cl)c1Cl,i,3%
COc1cc(/C=C2\SC(=S)N(CCC(=O)N3CCCCC3)C2=O)cc(OC)c1OC,-20%,-10%
N#Cc1ccc(C(=O)NC2CCCCCCC2)cc1,-10%,-15%
O=[N+]([O-])c1cccc(/C=C/c2ccccc2)c1,-15%,-13%
COc1cccc(OC)c1C(=O)Nn1c(-c2cccc(C)c2)nc2ccccc2c1=O,-6%,-5%
O=C1CCC(=O)N1CNc1cccnc1,-23%,-7%
CCc1ccc(NC(=S)N(CCC(C)C)C2CCN(C(C)=O)CC2)cc1,-3%,-15%
CC(N=C1CC(C)(C)CC(=O)/C1=C(/O)CCCN1C(=O)c2ccccc2C1=O)C(=O)O (centres undefined),i,-16%
CN1N=C(C(C)(C)C)CSC1=Nc1ccccc1,i[7.34 µM],-4%[7.34 µM]
O=C(N/N=C/c1cccs1)c1cccc(S(=O)(=O)Nc2ccc(Cl)cc2)c1,?,?
Cc1c(OCC(=O)N2CCC(C(=O)O)CC2)ccc2c3c(c(=O)oc12)CCC3,-3%,-4%

# 2 entries picked at random from the list so far:
SMILES,Vaccinia mCherry,Vaccinia Venus
CC(N=C1CC(C)(C)CC(=O)/C1=C(/O)CCCN1C(=O)c2ccccc2C1=O)C(=O)O (centres undefined),i,-16%
OCCNC(=S)Nc1cccc(Cl)c1Cl,i,3%

# 28 consecutive compounds already listed, for reference:
SMILES,Vaccinia mCherry,Vaccinia Venus
COc1cccc(/C=C/C(=O)NCc2cn3cc(Cl)ccc3n2)c1,-15%,-15%
COCCN(Cc1ccccc1)C(=O)c1cccc(S(=O)(=O)N2CCN(c3ccc(F)cc3)CC2)c1,i,-5%
CCCCCCN1CCN(C2CN(Cc3ccc(F)cc3)S(=O)(=O)C2)CC1 (centres undefined),0%,-11%
O=C(CCSc1nc(-c2ccc3c(c2)OCO3)cc(C(F)(F)F)n1)NCc1ccco1,-25%,-17%
CC(C)N1C(=O)S/C(=C/c2ccccc2OCc2ccc(C(=O)O)cc2)C1=O,-6%,-3%
COc1ccc([C@H]2C[C@@H](n3cc(-c4ccc(F)cc4)nn3)[C@H](O)CN2C(=O)c2cccs2)cc1,-7%,-21%
CC(OC(=O)CCCc1nc2ccccc2s1)C(=O)NC(N)=O (centres undefined),-23%,3%
COc1ccc(-c2c(C(=O)c3ccccc3)[nH]c(N)c2C(=O)c2ccc(Br)cc2)cc1OC,-30%,-14%
O=C(OCc1nnc(-c2ccccc2)o1)c1cc([N+](=O)[O-])ccc1Cl,-14%,-11%
COc1cc(OC)cc(C(=O)NCc2ccc3c(c2)OCO3)c1,-7%,-9%
O=C1c2ccccc2C(=O)C1c1ccnc2ccccc12,-15%,2%
CCc1ccc(N2CC(C(=O)Nc3nccs3)CC2=O)cc1 (centres undefined),nt,?
COc1ccc(-c2ccc3c(N)c(C(=O)c4ccc(OC)c(OC)c4)sc3n2)cc1,4%,-17%&-8%
COc1ccc(-c2c(C)nc3c(-c4ccccn4)cnn3c2N)cc1,-3%,-23%
O=C(c1ccc2c(c1)ncn2-c1ccc(F)cc1F)N1CCC2(CC1)OCCO2,-5%,-9%
CNc1nc(-c2ccccc2)nc(-c2ccc(OC)cc2)c1C#N,-6%,-8%
COc1ccc(-c2c(N)cnc(C(=O)O)c2C)c(OCc2ccccc2)c1OC,?,-12%
CN1CCN(C(=O)c2ccccc2NC(=O)COc2ccccc2Cl)CC1,0%,-9%
COc1ccc(Cc2nnc(NC(=O)c3ccccc3F)s2)cc1,-8%,-15%
CCOC(=O)c1ccc(CN(Cc2ccccc2C)S(=O)(=O)c2ccc(C(C)(C)C)cc2)cc1,-8%,-6%
OCCNC(=S)Nc1cccc(Cl)c1Cl,i,3%
COc1cc(/C=C2\SC(=S)N(CCC(=O)N3CCCCC3)C2=O)cc(OC)c1OC,-20%,-10%
N#Cc1ccc(C(=O)NC2CCCCCCC2)cc1,-10%,-15%
O=[N+]([O-])c1cccc(/C=C/c2ccccc2)c1,-15%,-13%
COc1cccc(OC)c1C(=O)Nn1c(-c2cccc(C)c2)nc2ccccc2c1=O,-6%,-5%
O=C1CCC(=O)N1CNc1cccnc1,-23%,-7%
CCc1ccc(NC(=S)N(CCC(C)C)C2CCN(C(C)=O)CC2)cc1,-3%,-15%
CC(N=C1CC(C)(C)CC(=O)/C1=C(/O)CCCN1C(=O)c2ccccc2C1=O)C(=O)O (centres undefined),i,-16%

# Additional results follow:
SMILES,Vaccinia mCherry,Vaccinia Venus
COc1ccc(CC(=O)Nc2ccc(F)c(F)c2F)cc1S(=O)(=O)N1CCOCC1,i,-13%
Cc1cccc(CNc2nc(-c3cccc(NS(C)(=O)=O)c3)nc3ccccc23)c1,12%,11%
CC(C)CNc1ncnc2c1ncn2[C@H]1CN(Cc2cccs2)C[C@@H](CO)O1,i,-9%
Cc1ccc(S(=O)(=O)c2nnn3c2nc(N2CCCCC2)c2ccccc23)cc1,i,-13%
CC(=O)Nc1ccc(C(=O)N2CCCc3ccccc32)cc1,-15%,-12%
Cc1ccccc1OCCn1cc(C(=O)c2ccco2)c2ccccc21,-5%,-4%
Cc1ccc(C(=O)C(C)Oc2ccc3ccc(=O)oc3c2)cc1 (centres undefined),0%,-10%
CCc1cccc(-n2nnc(-c3nc(-c4ccccc4Cl)no3)c2N)c1,-17%[7.34 µM],-13%[7.34 µM]
Cc1ccc(CNC(=O)CCCCCn2c(=O)[nH]c3ccccc3c2=O)cc1,-24%,-15%
Cc1ccc(CNC(=O)c2ccc(N3CCC4(CC3)CC(c3cccc(Br)c3)=NO4)c(NC(=O)c3c(Cl)cccc3Cl)c2)cc1,-13%,-5%
O=C(CNc1cc(S(=O)(=O)N2CCCC2)ccc1OCC(F)(F)F)Nc1cccc(C(F)(F)F)c1,?,?
CCOC(=O)c1cccc(NC(=O)N2CC(CC)Oc3ccccc32)c1 (centres undefined),-3%,-12%
Cc1cc(Nc2nc3c(c(=O)n(C)c(=O)n3C)n2C)n(-c2ccc(Cl)cc2)n1,nt,-10%
COc1ccc(CCN2CC(C(=O)N(C)Cc3ccc(C)o3)CCC2=O)cc1 (centres undefined),-3%,-13%
c1ccc(N2CCN(c3nc4ccccc4n4nnnc34)CC2)cc1,nt,17%
Cc1ccc(NC(=O)C2C3C=CC4(CN(Cc5cccnc5)C(=O)C24)O3)cc1 (centres undefined),-4%,-12%
CC1C(=O)N2CCCc3cc(NC(=O)C4CC4)cc1c32 (centres undefined),i,-8%
C=CCC[C@H](Cc1ccc(F)cc1)C(=O)OC[C@@H](Cc1c[nH]c2ccccc12)NC(=O)[C@H](CC=C)CC(=O)NCCO,?,?
CC1(C)C2CCC1(C)C(Nc1ccccc1)C2 (centres undefined),-11%,2%
CC(=O)Nc1cccc(NC(=O)Nc2ccc(F)cc2F)c1,i,-9%
CCOc1cc(C2CC(=O)Nc3c2c(=O)nc(SCc2cccc(Cl)c2)n3C)ccc1O (centres undefined),-12%,-9%
Cc1ccc(N2CC(C(=O)N3CCN(c4ccccn4)CC3)CC2=O)cc1 (centres undefined),-4%,-19%
COC(=O)[C@]12CCCCC=C1N(Cc1ccccc1)C(=O)[C@H](CC(=O)NCc1cccc3ccccc13)C2,i,-7%
Cc1cccc(N(CC(=O)NCc2ccc(F)cc2)C(=O)c2csnn2)c1C,?,-13%
CCn1c2ccccc2c2cc(/C=C3\C=Cc4ccccc43)ccc21,37%[activator],-7%
Cc1ccc([C@@H]2C[C@H]3[C@@H](CN2S(=O)(=O)c2ccc(C)cc2)C(=O)C[C@@H](c2ccccc2F)N3S(=O)(=O)c2ccc(C)cc2)cc1,12%,-17%
CCn1c(=NC(=O)CS(=O)(=O)c2ccc(C)cc2)sc2cccc(OC)c21,-31%,-23%
Cc1c(C(=O)N2CCCC(C)C2)sc2ncnc(NCCN3CCCCC3)c12 (centres undefined),-23%,-11%
CCOc1ccc(C(C)=O)cc1COC(=O)c1cc([N+](=O)[O-])ccc1N1CCOCC1,-3%,-19%
CC(=O)Oc1ccc(/C=C2\N=C(C3CCCCC3)OC2=O)cc1,-2%,-5%
COc1cccc2sc(Nc3nc4ccc(NC(C)=O)cc4s3)nc12,i,-29%
C/C=C/c1ccc(OCC(O)CN2CCCCCCC2)c(OC)c1 (centres undefined),-16%,-6%
COc1ccc(N2CCN(C(=O)CCc3c(C)nc4cc(-c5ccc(OC)cc5OC)nn4c3C)CC2)cc1,-30%,-26%
CCN1CCc2nc3ccccc3c(C(=O)Nc3ccc(C#N)cc3)c2C1,-6%,-17%
O=C(Oc1cccc(Cl)c1)N1CCOCC1,-13%,-10%
Cc1csc(=O)n1CCC(=O)OCC(=O)Nc1ccc(Cl)cn1,-14%,-10%
O=C(CCC(=O)c1ccc(F)cc1)Nc1cccc(S(=O)(=O)Nc2cccc(Cl)c2)c1,-4%,-17%
COc1cc(C(=O)NCc2nnc(SCC(=O)Nc3nc4ccc(C)cc4s3)o2)cc(OC)c1OC,i,-8%
Cc1cccc(-n2ncc3c(NCCc4ccc(S(N)(=O)=O)cc4)ncnc32)c1,-22%,?
CCOc1ccc(CCNC(=O)c2nc(-c3cccc(F)c3)n3c2CCCCC3)cc1OCC,i,?
Cc1ccc(NC(=O)Nc2nc3ccc(S(C)(=O)=O)cc3s2)cc1,-15%,1%
Cc1ccc([N+](=O)[O-])cc1S(=O)(=O)N(C(=O)c1ccncc1)c1ccc2oc3c(c2c1)CCCC3,-27%,-19%
CCCNC(=O)c1cnn2c(C(F)F)cc(-c3ccccc3)nc12,-8%,-10%
COc1ccc(Br)cc1CNC(=O)c1ccc2c(c1)N(Cc1ccc(C)cc1)CCS2,-22%,-13%
O=C(CN1CCN(C(=O)c2ccccc2F)CC1)Nc1ccc(Br)cc1,-26%,-17%
O=C(Nc1ccc(C(=O)N2CCCC2)cc1)c1cc(F)c(F)cc1Cl,17%,-14%
